Vaccinia inh – blocks a specific stage of Vaccinia orthopoxvirus infection, primary screen, cell-based, single point. Vaccinia-infected cells, mCherry/Venus stage reporter fluorescence; stronger effect = lower value; some inactives read as strong as hits. 89,000 tested, 0.01% active. activity change (mCherry), % (test concentration not listed). AID 1053133, 2014;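 active = mCherry past -33% and 40 or more points under the early reporter, replicates agreeing; inconclusive = past -33% without that gap or agreement; tested in A549 cells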;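 also: scaled between vehicle wells and reference inhibitor wells; 23 nL library stock went into each well; one replicate is shown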
Vaccinia inh Venus – second read-out of Vaccinia inh, no call of its own (marks repeat the call); activity change (Venus), %; measured here: Venus reporter, other viral stage;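 negative = less Venus signal; first of two replicates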
The depositor's hits bear a star; ? = inconclusive; · = not tested or not shown; & = joins results of further samples.

Start of the data: the first six records (preview)
SMILES | Vaccinia inh | Vaccinia inh Venus
COc1ccc2c3c(n(C)c2c1)[C@H](CO)N(CC1CCOCC1)CC31CN(CC2CCOCC2)C1 | -1.2 | -3.2
C[C@@H]1CN([C@H](C)CO)C(=O)c2cccc(NS(=O)(=O)c3ccc(F)cc3)c2O[C@H]1CN(C)Cc1ccc(C(F)(F)F)cc1 | -16.8 | -13.4
CCCNC(=O)N1CC2(C1)CN(C(=O)NC1CCCC1)[C@@H](CO)c1[nH]c3cc(OC)ccc3c12 | 7.4 | -1.5
CCCC#Cc1ccc([C@@H]2[C@@H](CO)N3C(=O)CN(C(=O)c4ccccn4)C[C@H]23)cc1 | 23.7 | -1.1
CC(=O)N1CC2(C1)[C@H](c1ccc(-c3ccc(F)cc3)cc1)[C@H](CO)N2CC1CC1 | -9.4 | -0.2
COc1ccc(NC(=O)Nc2cccc3c2O[C@H](CN(C)Cc2ccccc2)[C@H](C)CN([C@H](C)CO)C3=O)cc1 | 4.4 | 11.7

The listing, repeating the preview:
SMILES | Vaccinia inh | Vaccinia inh Venus
COc1ccc2c3c(n(C)c2c1)[C@H](CO)N(CC1CCOCC1)CC31CN(CC2CCOCC2)C1 | -1.2 | -3.2
C[C@@H]1CN([C@H](C)CO)C(=O)c2cccc(NS(=O)(=O)c3ccc(F)cc3)c2O[C@H]1CN(C)Cc1ccc(C(F)(F)F)cc1 | -16.8 | -13.4
CCCNC(=O)N1CC2(C1)CN(C(=O)NC1CCCC1)[C@@H](CO)c1[nH]c3cc(OC)ccc3c12 | 7.4 | -1.5
CCCC#Cc1ccc([C@@H]2[C@@H](CO)N3C(=O)CN(C(=O)c4ccccn4)C[C@H]23)cc1 | 23.7 | -1.1
CC(=O)N1CC2(C1)[C@H](c1ccc(-c3ccc(F)cc3)cc1)[C@H](CO)N2CC1CC1 | -9.4 | -0.2
COc1ccc(NC(=O)Nc2cccc3c2O[C@H](CN(C)Cc2ccccc2)[C@H](C)CN([C@H](C)CO)C3=O)cc1 | 4.4 | 11.7
COCC(=O)N(C)C[C@@H]1Oc2cc(-c3ccccc3F)ccc2S(=O)(=O)N([C@H](C)CO)C[C@H]1C | 7.9 | 5.9
COCC(=O)N1CC(=O)N2[C@@H](CO)[C@@H](c3ccc(C#CC4CCCC4)cc3)[C@@H]2C1 | -7.1 | 5.4
CO[C@@H]1CC[C@@H]2CCOc3c(C#N)cccc3C(=O)N(C)C[C@@H](C)C(=O)N(C)C[C@@H]1O2 | 14.7 | 12.5
C[C@@H]1CCCCO[C@@H](CN(C)C(=O)CCCN(C)C)[C@@H](C)CN([C@@H](C)CO)C(=O)c2cc(NC(=O)CCCN(C)C)ccc2O1 | 16.8 | 16.5
Cc1ccc(S(=O)(=O)N(C)C[C@H]2Oc3ccc(NC(=O)Nc4ccc(C(F)(F)F)cc4)cc3C(=O)N([C@H](C)CO)C[C@H]2C)cc1 | -16.0 | -4.0
Cc1ccc(S(=O)(=O)Nc2ccc3c(c2)C(=O)N([C@H](C)CO)C[C@H](C)[C@@H](CN(C)C(=O)Cc2ccccc2)OCCCC[C@@H](C)O3)cc1 | 50.0 | 28.4
N#Cc1cccc(-c2ccc3c(c2)[C@H]2[C@H](CCN2S(=O)(=O)c2ccc(F)cc2)[C@@H](CO)N3)c1 | ? | ·
Cc1cc(C(=O)Nc2ccc3c(c2)C(=O)N(C)[C@H]2CC[C@H](CC(=O)N[C@@H](C)c4ccccc4)O[C@H]2CO3)no1 | -9.9 | -6.6
CCS(=O)(=O)Nc1ccc2c(c1)C(=O)N(C)[C@H]1CC[C@@H](CC(=O)NCc3ccc(OC)cc3)O[C@H]1CO2 | 1.0 | -1.0
C[C@H](CO)N1C[C@H](C)[C@H](CN(C)C(=O)Nc2ccc3c(c2)OCO3)Oc2ccc(NC(=O)CCC(F)(F)F)cc2CC1=O | 4.3 | -4.0
Cc1noc(C)c1S(=O)(=O)N(C)C[C@@H]1OCCCC[C@@H](C)Oc2ccc(NS(=O)(=O)c3cccs3)cc2C(=O)N([C@H](C)CO)C[C@H]1C | ? | ·
CCC(=O)N1C[C@H](C)[C@@H](OC)CN(C)C(=O)c2ccc(NC(=O)CC(F)(F)F)cc2OC[C@@H]1C | 13.2 | 21.2
CO[C@H]1CN(C)C(=O)c2ccc(NS(=O)(=O)c3ccc(Cl)cc3)cc2OC[C@@H](C)N(C)C[C@@H]1C | -1.9 | -1.4
COc1ccc(CNC(=O)C[C@@H]2C[C@@H]3c4cc(NS(=O)(=O)c5ccc(F)cc5)ccc4O[C@@H]3[C@@H](CO)O2)cc1 | -0.9 | 10.4
COc1ccc(NC(=O)N(C)C[C@@H]2OCc3ccccc3-c3ccccc3C(=O)N([C@H](C)CO)C[C@H]2C)cc1 | 9.2 | 4.6
CC(C)CC#Cc1cnc2c(c1)C(=O)N([C@H](C)CO)C[C@H](C)[C@H](CN(C)C(=O)c1ccc(F)cc1)O2 | -7.3 | -8.0
C[C@@H]1CN([C@H](C)CO)C(=O)c2cc(NS(=O)(=O)c3cn(C)cn3)ccc2O[C@H]1CN(C)S(C)(=O)=O | 6.4 | 4.0
C[C@H](CO)N1C[C@H](C)[C@@H](CN(C)Cc2ccc3c(c2)OCO3)Oc2c(NC(=O)Nc3ccccc3)cccc2C1=O | 5.8 | -0.3
CCNC(=O)C[C@@H]1CC[C@H]2[C@H](COc3ccc(NC(=O)Nc4ccc(F)cc4)cc3C(=O)N2C)O1 | 10.1 | 7.5
O=C(c1ccc(F)cc1)N1CC(=O)N2[C@H](CO)[C@H](c3ccc(C#Cc4ccc(F)cc4)cc3)[C@H]2C1 | ? | ·
COc1ccc(NC(=O)Nc2ccc3c(c2)CC(=O)N([C@H](C)CO)C[C@@H](C)[C@H](CN(C)Cc2ccncc2)O3)cc1 | 31.4 | 16.3
CNC[C@@H]1Oc2ccc(NS(=O)(=O)c3ccc(OC)cc3)cc2CC(=O)N([C@@H](C)CO)C[C@@H]1C | 18.1 | 1.2
O=C(C[C@H]1C[C@@H]2c3cc(NC(=O)NC4CCCC4)ccc3O[C@@H]2[C@H](CO)O1)NCc1ccccn1 | 36.9 | 16.2
O=C(CC(F)(F)F)N1C[C@@H]2[C@H](c3ccccc31)[C@H](CO)N2Cc1cccnc1 | -0.8 | 13.6
O=C(NC[C@H]1N[C@H](CO)[C@@H]1c1ccccc1)C1CC1 | 16.8 | 8.5
C/C=C/c1ccc2c(c1)O[C@@H](CN(C)C(=O)c1ccccc1)[C@@H](C)CN([C@@H](C)CO)S2(=O)=O | -6.3 | -6.4
C[C@@H]1CCCCO[C@@H](CN(C)Cc2ccncc2)[C@@H](C)CN([C@H](C)CO)C(=O)c2cc(NC(=O)c3ccncc3)ccc2O1 | 5.8 | 7.7
O=C(C1CCCC1)N1CC2(C1)[C@@H](c1ccccc1)[C@H](CO)N2C(=O)c1cccnc1 | 1.2 | 4.9
C[C@@H]1CN([C@H](C)CO)C(=O)c2cccc(NS(=O)(=O)c3ccc(F)cc3)c2O[C@@H]1CN(C)Cc1ccc2c(c1)OCO2 | 1.7 | 6.0
C[C@H]1CN([C@@H](C)CO)C(=O)c2cccc(NC(=O)Nc3ccc4c(c3)OCO4)c2O[C@H]1CN(C)S(=O)(=O)c1cn(C)cn1 | 17.0 | 14.7
O=C(C[C@@H]1C[C@H]2c3cc(NC(=O)c4cccnc4)ccc3O[C@H]2[C@@H](CO)O1)NCc1ccccc1 | 10.7 | 6.1
C[C@@H]1CCCCO[C@@H](CN(C)Cc2ccc(Cl)c(Cl)c2)[C@@H](C)CN([C@@H](C)CO)C(=O)c2cc(NS(=O)(=O)c3ccc(F)cc3)ccc2O1 | 4.2 | 6.0
COc1ccccc1CNC(=O)C[C@@H]1CC[C@H]2[C@@H](COC[C@@H](O)CN2C(=O)Nc2ccccc2)O1 | 7.3 | 11.5
COc1ccc(-c2ccc([C@H]3[C@@H](CO)N4C(=O)CN(C(=O)Cc5ccccn5)C[C@@H]34)cc2)cc1 | 1.6 | 8.0

Record cards, as listed above.
Record of C[C@H](CO)N1C[C@H](C)[C@@H](CN(C)Cc2ccc3c(c2)OCO3)Oc2c(NC(=O)Nc3ccccc3)cccc2C1=O : Vaccinia inh: 5.8; Vaccinia inh Venus: -0.3
Record of COc1ccc(NC(=O)Nc2ccc3c(c2)CC(=O)N([C@H](C)CO)C[C@@H](C)[C@H](CN(C)Cc2ccncc2)O3)cc1 : Vaccinia inh: 31.4; Vaccinia inh Venus: 16.3

Next entries.
SMILES | Vaccinia inh | Vaccinia inh Venus
C[C@H]1CN([C@@H](C)CO)C(=O)c2cccc(NC(=O)c3ccncc3)c2O[C@H]1CN(C)Cc1ccc(Cl)c(Cl)c1 | 9.4 | 7.2
C[C@@H]1CN([C@H](C)CO)C(=O)c2cc(NC(=O)Nc3ccccc3)ccc2O[C@@H]1CN(C)C(=O)Nc1ccc(C(F)(F)F)cc1 | -0.7 | 4.8
C[C@@H]1CN([C@H](C)CO)C(=O)c2cc(NC(=O)NC3CCCCC3)ccc2O[C@@H](C)CCCCO[C@@H]1CN(C)C(=O)c1ccccc1 | 18.1 | 11.5
COc1ccc(NC(=O)Nc2ccc3c(c2)[C@H]2C[C@@H](CC(=O)NC4CCCCC4)O[C@@H](CO)[C@H]2O3)cc1 | 5.5 | 4.9
O=C(Nc1ccc(C(F)(F)F)cc1)N[C@H]1CC[C@@H](CCn2cc(C3(O)CCCC3)nn2)O[C@H]1CO | -15.6 | -12.6
C[C@@H]1CN([C@@H](C)CO)C(=O)c2cc(N(C)C)ccc2O[C@@H](C)CCCCO[C@@H]1CN(C)C(=O)C1CCCCC1 | -19.5 | -5.5
Cc1ccc(S(=O)(=O)N(C)C[C@@H]2Oc3ccc(NC(=O)NC(C)C)cc3C(=O)N([C@@H](C)CO)C[C@H]2C)cc1 | 5.1 | 3.2
COc1ccccc1NC(=O)N[C@@H]1CC[C@@H](CCn2cc(-c3cccnc3)nn2)O[C@H]1CO | -8.2 | 9.7
COc1cccc(-c2ccc(C3[C@H]4CNC[C@@H]3N4C(=O)Nc3ccc(F)cc3)cc2)c1 (stereo partly specified) | -0.8&-6.4 | 4.6&-7.3
O=C(NCc1ccc2c(c1)OCO2)[C@@H]1[C@@H](CO)[C@@H]2Cn3c(cccc3=O)[C@H]1N2Cc1ccccc1 | 16.6 | 15.2
C[C@H]1CN([C@@H](C)CO)C(=O)CCCn2cc(nn2)CO[C@H]1CN(C)Cc1ccc(C(=O)O)cc1 | 16.9 | 17.1
CCCN1[C@@H]2c3ccc(-c4ccc(F)cc4)c(=O)n3C[C@H]1[C@H](CO)[C@H]2C(=O)NCC | 10.3 | 5.9
COc1ccccc1-c1cnc2c(c1)C(=O)N([C@H](C)CO)C[C@H](C)[C@@H](CN(C)Cc1ccccc1)O2 | -15.6 | -6.8
COc1ccc(CN(C)C[C@@H]2OCCCC[C@H](C)Oc3ccc(NC(=O)C4CCCCC4)cc3C(=O)N([C@H](C)CO)C[C@H]2C)cc1 | ? | ·
CN(C)CC(=O)Nc1ccc2c(c1)[C@@H]1C[C@H](CC(=O)NCc3cccc(F)c3)O[C@@H](CO)[C@@H]1O2 | 14.4 | 8.2
C[C@@H]1CCCCO[C@@H](CN(C)S(=O)(=O)c2ccc(F)cc2)[C@@H](C)CN([C@@H](C)CO)C(=O)c2cc(NC(=O)c3ccccc3)ccc2O1 | -5.4 | -6.7
COc1ccc(NC(=O)N(C)C[C@@H]2OCc3cn(nn3)CCCC(=O)N([C@H](C)CO)C[C@@H]2C)c(OC)c1 | 8.0 | 9.6
O=S(=O)(c1ccc(F)cc1)N1CCCCN2[C@H](C1)[C@H](c1ccc(-c3ccccc3F)cc1)[C@@H]2CO | -30.9 | -32.7
O=C(C[C@@H]1C[C@H]2c3cc(NC(=O)NC4CCCC4)ccc3O[C@H]2[C@H](CO)O1)NCc1ccccc1 | -5.1 | -5.3
C[C@H](CO)N1C[C@H](C)[C@H](CN(C)Cc2ccc(Oc3ccccc3)cc2)Oc2ccc(NC(=O)CCC(F)(F)F)cc2C1=O | ? | ·
C[C@H]1CN([C@@H](C)CO)C(=O)c2cccc(NC(=O)c3cnccn3)c2O[C@@H]1CN(C)C(=O)Nc1ccc(F)cc1 | 9.1 | -2.6
CO[C@H]1CN(C)C(=O)c2cc(NC(=O)c3cc(C)on3)ccc2OC[C@@H](C)N(C)C[C@@H]1C | 6.0 | 7.7
COC(=O)C[C@H]1C[C@H]2c3cc(NC(=O)C4CCC4)ccc3O[C@H]2[C@H](CO)O1 | -1.3 | 6.5
C[C@H](CO)N1C[C@H](C)[C@@H](CN(C)C(=O)Nc2ccc(F)cc2)OCCCC[C@H](C)Oc2ccc(NC(=O)Nc3ccccc3)cc2C1=O | -2.5 | 8.4
COc1ccc(CN(C)C[C@H]2OCCCC[C@H](C)Oc3ccc(NC(=O)NC(C)C)cc3C(=O)N([C@@H](C)CO)C[C@@H]2C)cc1 | -14.5 | -8.0
COCC#Cc1ccc2c(c1)O[C@H](CN(C)S(=O)(=O)c1ccc(C)cc1)[C@@H](C)CN([C@@H](C)CO)S2(=O)=O | ? | ·
C[C@H](CO)N1C[C@H](C)[C@@H](CN(C)C(=O)C2CCC2)Oc2ncc(C#CCc3ccccc3)cc2C1=O | 24.1 | 22.1
CN1C(=O)c2cc(NC(=O)Cc3cccs3)ccc2OC[C@@H]2O[C@@H](CC(=O)N[C@H]3CCN(Cc4ccccc4)C3)CC[C@H]21 | -10.4 | -10.3
COc1ccc(NC(=O)N(C)C[C@H]2OCc3cnnn3CCCC(=O)N([C@H](C)CO)C[C@H]2C)c(OC)c1 | -2.7 | -6.4
C[C@@H]1CCCCO[C@@H](CN(C)S(=O)(=O)c2ccccc2)[C@@H](C)CN([C@H](C)CO)C(=O)c2cc(NC(=O)Nc3ccc(F)cc3)ccc2O1 | 7.1 | 9.7
O=C(CCN1CCCCC1)NCC[C@H]1CC[C@@H](NC(=O)c2ccc(F)cc2)[C@H](CO)O1 | 18.2 | 19.5

Only part of the results is shown, so the mix of outcomes need not match the whole.
